Rce1 inh = inhibitors of yeast Ras-converting enzyme; yeast membranes, quenched prenylated peptide cleavage fluorescence; calls only; 0.27% of 290,000 active;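 active = fall in fluorescence gain of 50% or more versus controls, with final raw signal at or below 3038400; inconclusive = same 50% fall but final raw signal above 3038400; inactive = fall in fluorescence gain under 50%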;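 note: plate controls were neutral control wells for no effect and wells lacking membranes for full effect; tested at 10 µM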
Target sequence (Q03530 whole entry, looked up): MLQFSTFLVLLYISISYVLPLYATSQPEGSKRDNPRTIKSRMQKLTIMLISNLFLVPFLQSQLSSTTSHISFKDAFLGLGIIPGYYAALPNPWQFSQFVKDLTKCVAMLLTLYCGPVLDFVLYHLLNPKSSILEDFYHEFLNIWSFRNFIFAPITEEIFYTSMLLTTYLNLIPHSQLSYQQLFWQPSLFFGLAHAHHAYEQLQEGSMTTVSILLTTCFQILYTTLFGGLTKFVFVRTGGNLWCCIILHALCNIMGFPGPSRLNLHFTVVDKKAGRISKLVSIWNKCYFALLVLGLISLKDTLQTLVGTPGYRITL
eIF4H FP inh = inhibitors of RNA binding by human eIF4H | eIF4H fluorescence polarization binding assay | 0.94% of 290,000 active | inhibition, % at 35 µM | AID 2012 | Q15056;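 active = 50% or more with normal probe brightness, or confirmed in later tests; inconclusive = above 50% with abnormal brightness, or retests that disagree; inactive = below 50% or failed in later tests; about a fifth of its hits are not listed in these tables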;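 note: calls also rest on retests at 20 µM and on dose response follow-up; 0% = protein and probe with vehicle and 100% = probe without protein; strong numbers were not always called active; many hits fall short of the cut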
UUG fidelity = yeast start codon fidelity modulation. S. cerevisiae UUG-firefly luciferase reporter, luminescence/redox ratio. activity score, % at 18.7 µM. 0.13% of 350,000 active. AID 602363;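 active = replicate mean at a twofold rise or more, about +100% in these data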;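 note: firefly luciferase made from a UUG start codon reports start codon fidelity; reporter light over untreated wells divided by growth signal over untreated wells; some hits fall short of that in this replicate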
HIV Env fusion = inhibitors of HIV Env-mediated cell fusion | AID 651610 | inhibition, % at 12.3 µM | 1.1% of 360,000 active | HeLa-JRFL Env/CEM21 cell fusion, luciferase;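 active = mean replicate inhibition score of at least 50 and every replicate individually at or above 50; inconclusive = only one of the two criteria met; inactive = mean below 50 and not all replicates reaching 50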;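 note: 0% = plate neutral controls and 100% = maraviroc near 300 nM; one replicate is shown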
CSC inhib = blocks cancer stem cells | cancer stem cell-like cells viability, luminescence | AID 2717 | inhibition, % at 7.5 µM | 1.1% of 300,000 active;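 active = mean at 75% or more and at least half the replicates too; inconclusive = mean and replicates disagree; tested in HMLE shEcad cells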;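 note: 0% = median of negative and 100% = median of positive control wells; the first replicate is given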
PABP FP inh = blocks human PABP binding to poly(A) RNA. AID 2014. fluorescence polarization. 1% of 290,000 active. P11940. inhibition, % at 35 µM;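 active = 50% or more with normal probe brightness, or confirmed in later tests; inconclusive = above 50% with abnormal brightness, or retests that disagree; inactive = below 50% or failed in later tests; about a fifth of its hits are not listed in these tables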;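 note: calls also rest on retests at 20 µM and on dose response follow-up; controls were probe without protein and protein plus probe with vehicle; some compounds called inactive have numbers as strong as hits; many hits fall short of the cut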
MT1-MMP act inh = inhibitors of human MT1-MMP activation; GFP/RFP ratio change, % at 20 µM; P50281; 0.061% of 360,000 active; HT1080 RFP-PRO-GFP cells, GFP/RFP ratio fluorescence, overnight; percent of plate control window, DMSO zero; AID 651647;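 active = GFP/RFP ratio change of at least 30% with cell ATP level not reduced by more than half and red fluorescence within 50% of control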; note: strong numbers were not always called active
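Test system: HT1080 RFP-PRO-GFP cells; Benchmarks: DMSO and RFP-L50D-GFP cell wells; Timing: cells overnight before dosing, compound overnight, 37 °C, 5% CO2; Compound: one 20 µM compound dose with 1% DMSO; Read-out: GFP/RFP fluorescence ratio.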
MT1-MMP act inh RFP = recorded beside MT1-MMP act inh, whose call it bears; RFP signal change, %; measured here: RFP expression control read;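 0 = vehicle wells; hits needed this value within 50% of zero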
Starred values were filed as active, the others as inactive; i = inactive; ? = inconclusive; · = not tested or not shown; + = active, no number; & = joins results of further samples.

SMILES	Rce1 inh	eIF4H FP inh	UUG fidelity	HIV Env fusion	CSC inhib	PABP FP inh	MT1-MMP act inh	MT1-MMP act inh RFP
C/C=C(\C)C(=O)NCCN1C2=NC[C@H](Cc3ccccc3)N2C[C@H]1Cc1ccc(O)cc1	i	1	1	·	-12	-9	-1	1
CC(=O)C(Cc1ccc(Cl)nc1)(Cc1ccc(Cl)nc1)C(C)=O	·	1	·	15	-6	-3	-2	-2
O=C(COc1ccc(-c2ccccc2)cc1)N1CCN(C(=O)c2cccs2)CC1	i	4	·	23	-3	-3	-8	-5
CCOc1ccccc1NC(=O)C12CC3CC(C1)CC(c1ccc(C)cc1)(C3)C2	i	-7	-2	-30	26	-9	1	-7
Cc1ccc(N2CC(C(=O)Nc3ccc(S(=O)(=O)N4CCCC4)cc3)CC2=O)cc1 (stereo not given)	i	-6	-9	-17	-5	3	-2	0
Cc1ccnc2nc(NC(=O)c3ccco3)nn12	i	-8	-19	-15	·	10	-1	-1
CC(C)n1ncc2c(C(=O)NCc3cccnc3)cc(C3CC3)nc21	·	·	-13	-22	·	·	4	2
CCc1cc2c(SCc3ccc(C(=O)OC)o3)ncnc2s1	·	29	-7	6	5	24	-1	-1
COCCn1c(SCC(=O)c2ccc(CNC(C)=O)o2)nc2ccccc2c1=O	i	14	1	-12	8	8	-1	0
O=c1cc(NS(=O)(=O)c2ccccc2)nc(SCc2c(Cl)cccc2Cl)[nH]1	i	6	·	-6	16	10	0	1
O=S1(=O)C=C(Oc2ccc3ccccc3c2)c2ccccc21	i	6	2	·	5	1	0	2
C[C@H](NC(=O)[C@@H]1Cc2ccccc2CN1)C(=O)NCC1CCCO1 (stereo not given in full)	i	-6	-11	8	-3	7	1	2

Arranged by value in UUG fidelity (lowest first): 3 from the list above
SMILES	Rce1 inh	UUG fidelity	HIV Env fusion	MT1-MMP act inh	MT1-MMP act inh RFP
CCOc1ccccc1NC(=O)C12CC3CC(C1)CC(c1ccc(C)cc1)(C3)C2	i	-2	-30	1	-7
COCCn1c(SCC(=O)c2ccc(CNC(C)=O)o2)nc2ccccc2c1=O	i	1	-12	-1	0
O=S1(=O)C=C(Oc2ccc3ccccc3c2)c2ccccc21	i	2	·	0	2

Additional compounds:
SMILES	Rce1 inh	eIF4H FP inh	UUG fidelity	HIV Env fusion	CSC inhib	PABP FP inh	MT1-MMP act inh	MT1-MMP act inh RFP
Cc1ccc2c(c1)NC(=O)[C@@]1(C)[C@@H](c3ccccc3)[C@H]3COc4ccc(Cl)cc4[C@@H]3N1C2=O	·	·	-16	-42	·	·	-8	-3
CCOc1cccc(C2/C(=C(/O)c3ccc4c(c3)CC(C)O4)C(=O)C(=O)N2CCCn2ccnc2)c1 (stereo not given)	i	-11	-7	-4	-6	11	0	2
O=C(c1ccc(-c2cccc(Cl)c2Cl)o1)N1CCOCC1	i	5	-9	-106	3	-2	6	2
O=C1C=C(c2ccccc2)OC(=O)C1C(=O)c1ccccc1 (stereo not given)	i	-3&-5	-12	·	·	-3&13	2	4
COc1ccc(-c2nc(CS(=O)CC(=O)NC3CCCC3)c(C)o2)cc1OC (stereo not given)	i	-2	-13	-8	-7	-1	2	2
CN(C)c1ccc(/C=N/NC(=O)C(O)c2ccc(Br)cc2)cc1 (stereo not given)	+	2	·	-2	-13	-1	3	0
COc1ccc2ccccc2c1/C=N/NC(=O)c1ccc(C)nc1	i	-6	2	0	3	4	-1	2
CC(=O)Nc1ccc(SCc2ncc(-c3ccccc3)o2)cc1	i	-3	-3	-52	3	-8	-1	-5
Cc1ccc(OCC(=O)NN2C(=O)c3ccccc3C2=O)cc1	i	-14	-22	-2	12	2	3	7
CCOCCCn1c(SCC(=O)Nc2cccc(OC)c2)nc2ccccc2c1=O	i	2	16	5	-10	5	3	-2
COc1ccc2[nH]c(=O)c(CN(Cc3ccccc3OC)Cc3nnnn3CC3CCCO3)cc2c1 (stereo not given)	i	-10	-23	·	-2	6	1	-3
O=C(CSc1nnc(CNC(=O)c2ccc(F)cc2)o1)Nc1ccc2c(c1)OCO2	i	-10	-17	-2	2	28	0	5
N#CCCN(C(=O)COC(=O)C1CCN(c2ccc(C(F)(F)F)cn2)CC1)c1ccc(F)cc1	i	·	-12	10	·	·	3	-3
COc1ccc(C(CC(=O)O)NC(=O)COc2ccccc2OC)cc1OC (stereo not given)	i	-8	-6	·	3	10	0	0
Cc1ccccc1NC(=O)CSc1nc2c(c(-c3ccco3)c1C#N)CCCC2	i	-8	·	·	-9	15	11	5
CCOC(=O)c1cnc(-n2nc(C)cc2C)nc1-n1nc(C)cc1C	i	-5	-27	-23	-16	-6	-5	-2
CN1CC2([N+](=O)[O-])CC=C(Oc3ccccc3)C([N+](=O)[O-])(C1)C2 (stereo not given)	i	5	14	4	-10	5	3	1
Cc1cc(Cl)ccc1NC(=O)C(=O)N/N=C/c1ccc2c(c1)OCO2	i	15	-1	?	·	2	3	-2
Cc1cccc(C(=O)N2CCC(c3nc(-c4ccc(S(=O)(=O)N5CCOCC5)cc4)no3)CC2)c1	i	-5	·	21	-10	2	5	-9
CSc1nc(N(CCO)CCO)c2sc3nc(-c4ccco4)c4c(c3c2n1)CCC4	i	89*	-18	·	·	91*	1	-2
CCOC(=O)c1nnn(-c2nonc2N)c1-c1ccccc1Cl	i	-10	·	13	-8	-7	-4	-2
COC(=O)COc1ccc(S(=O)(=O)N2CCN(c3ccccc3F)CC2)cc1	i	-12	-8	·	0	-4	5	2
COC(=O)c1ccc(CN2CCN(CCc3ccccc3)C(CCO)C2)cc1 (stereo not given)	i	-8	·	10	3	-7	0	1
CCOc1ccc(Cn2c(SCCCCC#N)nc3c2c(=O)n(C)c(=O)n3C)cc1OCC	i	-13	-3	-48	3	-7	-4	-2
COc1ccc(CSc2nc(CSC)cc(N3CCOCC3)n2)cc1	i	0	-18	·	-1	-1	1	-7
Cc1ccc(-n2c(C)cc(C(=O)OCC(=O)N(CC(C)C)C3CCS(=O)(=O)C3)c2C)cc1 (stereo not given)	i	-3	-5	16	-19	-3	-1	-4
CCOc1ccc(-n2nnc3c(=O)n(C/C=C/c4ccccc4)cnc32)cc1	i	-7	-10	20	-2	10	2	-8
CC(C)n1c(Nc2ccccc2)nc2ccccc21	i	5	-21	·	-2	0	7	1
FC(F)(F)c1cc(-c2cccs2)nc(NCc2ccco2)n1	i	0	-14	-18	26	23	-5	-8
O=C(COC(=O)[C@@H]1CC(O)CN1S(=O)(=O)c1ccc2c(c1)OCCO2)NCc1ccc(F)cc1 (stereo not given in full)	i	-5	-5	11	-5	4	0	4
O=C(NCCN1CCN(c2ccccc2)CC1)C1CCCN(S(=O)(=O)c2cnc[nH]2)C1 (stereo not given)	i	4	-1	·	-3	0	-2	4
O=C1c2ccccc2C(=O)N1Cc1nc2ccccc2c(=O)n1Cc1ccco1	i	-3	·	·	-7	-1	·	·
COc1cccc(OC)c1C(=O)OCC(=O)NC(=O)NCc1ccccc1	i	-3	·	-18	1	5	1	-1
Nc1ccccc1S(=O)(=O)c1ccccc1N	i	-8	-11	·	-12	-1	3	-1
Cc1cc(C(=O)OCC(=O)c2c(N)n(C)c(=O)n(C)c2=O)c(C)n1-c1ccccc1	i	-9	-12	·	-3	-4	3	2
c1ccc(-c2nc3ccccc3nc2-c2ccccn2)nc1	i	5	·	-15	-2	-2	-7	-1
COc1cc(CN2CCN(C(=O)CC(C)C)CC2)c([N+](=O)[O-])cc1OC	i	-3	19	-8	10	4	0	2
Cc1ccc(S(=O)(=O)N(C)c2c(C)ccc(S(=O)(=O)NC(C)(C)C)c2C)cc1	i	-3	·	15	-6	-1	-4	-2
COc1ccccc1NC(=O)CSc1nc2ccccc2c(=O)n1CC1CCCO1 (stereo not given)	i	-4	10	-20	2	-9	-2	-4
O=C(NC1CCCC1)c1cc(S(=O)(=O)N2CCOCC2)c(Cl)cc1Cl	i	-2	·	-11	5	3	-2	-2
CCN1CCCC1CNC(=O)c1ccc2c(=O)n(CCOC)c(=O)[nH]c2c1 (stereo not given)	i	-5	-14	-10	-11	-7	-1	2
Nc1c(C(=O)NCc2ccco2)nnn1CC(=O)Nc1ccc2c(c1)OCO2	i	1	·	3	-9	0	4	3
O=C(NC1CCCC1)C(c1ccccn1)N(C(=O)c1csnn1)C1CCCC1 (stereo not given)	i	-1	-3	-4	2	-2	-4	-1
COc1ccc(CCNC(=O)c2cccnc2SC)cc1	i	6	·	13	-3	-7	-2	1
COc1ccc(CC(=O)Nc2cccc(C(=O)O)c2C)cc1	i	-10	-3	·	-8	-3	8	5
O=C(NCc1ccco1)c1nc(-c2ccccc2)n(-c2ccccc2)n1	i	-7	-18	-103	·	6	5	4
CSc1ccc(/C=N\Nc2nncn2N)cc1	i	-6	-24	-14	-4	-3	3	6
COc1ccc(-c2cc(=O)oc3cc(OC(C)C(=O)NC(Cc4c[nH]c5ccc(O)cc45)C(=O)O)ccc23)cc1 (stereo not given)	i	9	-2	·	0	24	1	5
O=C(COc1ccccc1)N1CCN(S(=O)(=O)c2cccc([N+](=O)[O-])c2)CC1	i	-8	·	-17	5	-10	-3	-1
O=C(NCc1ccco1)C(=O)c1c[nH]c2ccccc12	i	-3	-32	-16	4	-3	1	0
COc1ccc(CCN=Cc2ccccc2O)cc1OC	i	-4	-9	3	-6	-9	2	7
Cc1ccnc(N2CCC(C(=O)NCc3ccc4c(c3)OCO4)CC2)n1	i	-2	-13	-2	-9	-4	5	-1
CCOC(=O)c1[nH]c(C)c(C(=O)Nc2ccccc2F)c1C	i	3	-17	-65	·	-7	-7	-12
Cc1noc(NS(=O)(=O)c2ccc(NC(=O)COc3ccccc3)cc2)c1C	i	-2	-17	-4	·	-3	-1	1
Cc1cc(C)n(-c2ccc(Cl)c(C(=O)Nc3cc(C(F)(F)F)ccc3Cl)n2)n1	i	-10	·	-17	11	-4	-3	1
O=C(NC(=S)Nc1nc2c(s1)CCCC2)c1ccc(C(=O)c2ccccc2)cc1	i	7	-14	-8	57	3	10	-1
CN1CCN(CCC(=O)Nc2ccc(F)c(F)c2)CC1	i	2	-9	33	-2	-5	3	2
Cc1ccc(S(=O)(=O)n2[nH]c(=O)c(CCO)c2C)cc1	i	-5	-14	-12	1	13	5	3
CCc1ccc(C(=O)N2CCN(c3ccc(NC(=O)c4cccnc4)cc3)CC2)cc1	i	-7	-13	23	9	-1	-3	-11
Cc1nc(SCC(=O)Nc2c(C)n(C)n(-c3ccccc3)c2=O)nc(C)c1C	i	-2	·	·	-27	4	3	0
Next part
SMILES	Rce1 inh	eIF4H FP inh	UUG fidelity	HIV Env fusion	CSC inhib	PABP FP inh	MT1-MMP act inh	MT1-MMP act inh RFP
O=C(CNC1CCN(Cc2ccccc2)CC1)Nc1ccc(S(=O)(=O)N2CCCCC2)cc1	i	-6	·	19	-11	-6	4	-1
COc1cccc(-c2nnc3sc(C4CCCCC4)nn23)c1	i	-2	-15	123*	13	-3	-17	-14
O=C(Nc1ccc(F)cc1)Nc1nnc(Cc2ccccc2)s1	i	6	-16	-6	35	-1	0	-8
CC1(C)CC(NC(=O)COc2ccc(Br)cc2Cl)CC(C)(C)N1	i	7	-2	-16	-1	0	2	3
O=C(NC1CCCC1)c1cc2cc(Br)ccc2o1	i	3	-11	-23	9	-3	-3	-2
O=S(=O)(NCc1ccccc1)NCc1ccc(Cl)cc1Cl	i	4	-3	2	8	8	-2	1
O=C(COC(=O)c1ccccc1F)Nc1cccnc1Cl	i	3	·	-1	0	-12	1	6
